Screening results (PubChem)
H5N1 antiviral: antiviral screen in MDCK cells, H5N1 avian flu | cytopathic effect, luminescence, 72 h; active compounds read high; no value below 0 was filed and about half of the inactive calls have no number; reference of the scale not given here | 96,000 compounds, 0.07% hits | inhibition, % at 50 µM; in the data active = inhibition above about 25%
* hit, by the source's call; i = inactive. This is a subset. The share of hits here may be higher or lower than overall.

SMILES	H5N1 antiviral
CCc1nc2c(nnn2Cc2ccc(F)cc2)c(=O)[nH]1	i
Cn1c(=O)c2c(nc(NCCCO)n2CCc2ccccc2)n(C)c1=O	1.8
Cc1cc(NS(=O)(=O)c2ccc(NC(=O)COc3ccccc3Cl)cc2)no1	0.2
CSc1nnc(-c2ccco2)c(-c2ccco2)n1	14
Cc1ccccc1N(Cc1nnc2n1CCCCC2)C(=O)Nc1ccccc1	i
CSc1nnc(-c2ccc(S(=O)(=O)N3CCOCC3)cc2)n1CC1CCCO1 (stereo unspecified)	i
CCOC(=O)c1sc(NC(=O)C(C)(C)C)cc1C	i
CC(C)(C)C(=O)NCCCc1ccccc1	2.5
COc1cc(-c2nnc(SCC(=O)N3CCCC3)o2)cc(OC)c1OC	i
CCOC(=O)c1c(C)n(C)c2ccc(OCC(O)CNC(CC)CO)cc12 (stereo unspecified)	i
O=C(NNC(=O)c1sc2cccc(Cl)c2c1Cl)NC1CCCCC1	i
Cn1c(=O)c2c(nc(NC(Cc3ccccc3)C(=O)O)n2Cc2ccccc2)n(C)c1=O (stereo unspecified)	1.1
COc1ccc(OC)c(N(CC(=O)N2CCC(C)CC2)S(=O)(=O)c2ccc(OC)c(OC)c2)c1	i
CCOC(=O)N1CCN(C(=O)CN(c2ccc(C)c(C)c2)S(=O)(=O)c2ccccc2)CC1	i
CCC(C)NC(=O)c1ccccc1NS(=O)(=O)c1ccc(OC)c(OC)c1 (stereo unspecified)	0.2
O=C(CN1C(=O)C2C3C=CC(C3)C2C1=O)Nc1ccc(C(=O)O)cc1 (stereo unspecified)	i
CC1(C)Cc2c(c(N3CCOCC3)nc3sc(C#N)c(N)c23)CS1	i
COc1ccc2c(c1OC)C(=O)N1c3ccccc3C(=O)N(c3ccccc3)C21 (stereo unspecified)	i
C=CCOC(=O)c1cc(-c2ccc(/C=C3\C(=O)NC(=O)C(C#N)=C3C)o2)ccc1Cl	i
CCOC(=O)CCc1c(C)c2ccc(OCC(=O)N(CC)CC)c(C)c2oc1=O	1.3

Fetched one by one from the list above, two records:
SMILES	H5N1 antiviral
O=C(CN1C(=O)C2C3C=CC(C3)C2C1=O)Nc1ccc(C(=O)O)cc1 (stereo unspecified)	i
CCOC(=O)CCc1c(C)c2ccc(OCC(=O)N(CC)CC)c(C)c2oc1=O	1.3

(continued)
SMILES	H5N1 antiviral
Cc1ccc(C)c(C(=O)N(Cc2nc(-c3ccc(Cl)cc3)no2)C(C)C)c1	0.6
Cc1nnc(NC(=O)CSc2ncnc3c2cnn3-c2ccccc2C)s1	i
Cc1ccc(CC2CC(=O)N(Cc3ccco3)C2=O)cc1 (stereo unspecified)	0.1
Cc1ccc(C)c(NC(=O)c2ncn[nH]2)c1	0.2
CCOC(=O)c1c(C)[nH]c(C)c1C(=O)COC(=O)[C@@H](NC(=O)c1ccccc1OCC)C(C)C	i
COc1ccc(CN2CCSCC2)cc1O	i
Cc1ccc(N(C)C(=O)C2CCN(S(=O)(=O)c3ccc4c(c3)oc(=O)n4C)CC2)cc1	i
CCc1[nH]nc2c1C1(CCN(C(=O)OCc3ccccc3)CC1)C(C#N)=C(N)O2	i
N#CC1(c2c(O)nc3n(c2=O)CCCS3)CCCCC1	1.4
O=c1c(-c2ccc(Oc3ccccc3)cc2)[n+]([O-])c2ccccc2n1OCc1ccccn1	i
COCc1[nH][nH]c(=O)c1C=Nc1ccc(Cl)cc1	i
CN(C(=O)Oc1cccc2cccnc12)c1ccccc1	i
COc1ccc(Br)cc1CNC(=O)Nc1cccs1	1.0
COc1cc(/C=N/O)cc(Br)c1OCc1cccc(Cl)c1	i
CC(C)(C)NC(=O)C(c1ccccc1)N(C(=O)c1csnn1)C1CC1 (stereo unspecified)	i
CN(C)Cc1c(O)ccc2[nH]cnc12	0.2
CCN(CC)S(=O)(=O)c1ccc2c(c1)nc(CCC(=O)OCc1c(C)noc1C)n2C	0.8
Cc1c(C#N)c2ccccc2n1CC(=O)NCCc1c[nH]c2ccccc12	0.7
N#Cc1nc(COc2ccc(Br)cc2)oc1N1CCCCCC1	0.6
CC(=O)/C(C#N)=C1\NC(=O)C(Cc2ccc(C)c(C)c2)S1 (stereo unspecified)	2.5
Cc1ccc(C)c(N(CC(=O)NC2CCCC2)C(=O)c2cc3cc4cccc(C)c4nc3s2)c1	2.1
CCC(C)NC(=O)c1c(N)n(/N=C/c2cccs2)c2nc3ccccc3nc12 (stereo unspecified)	i
CC(C)(C)NC(=O)CSc1nnc(NC(=O)CCn2cnc3ccccc3c2=O)s1	0.3
Cc1cc(C)n(-c2cc(C(C)(C)C)nc3c(-c4ccc(Cl)cc4)cnn23)n1	i
Cc1ccccc1NS(=O)(=O)c1ccc(N2CCCC2=O)cc1	i
c1csc(C2Nc3cccc4cccc(c34)N2)c1	0.0
CN(Cc1nc2ccccc2n1C)S(C)(=O)=O	0.5
O=C(c1ccc(Cl)cc1)C1CCN(C(=O)NC2CCCCC2)CC1	i
CC(C)(C)NC(=O)COC(=O)c1ccc(S(=O)(=O)N2CCCCCC2)cc1	0.5
CCn1c(SCC(=O)c2cc(C)n(CC3CCCO3)c2C)nc2ccccc21 (stereo unspecified)	3.5
Cc1c(CC(C)C)nc(N)c(C#N)c1-c1ccccc1	0.1
Cn1cnnc1SCC(=O)n1c2ccccc2c2ccccc21	0.2
Cc1ccc(-n2[nH]c(C)c(C=Nc3ccc(C)cn3)c2=O)cc1	i
O=C(CN1CCN(c2ccccc2)CC1)Nc1cccc(C(F)(F)F)c1	0.2
CS(=O)(=O)c1ccc2nc(NC(=O)Nc3cccc(Cl)c3)sc2c1	i
O=C(O)c1cccc(Nc2nc(N3CCOCC3)nc(N3CCOCC3)n2)c1	2.5
COC(=O)C1C(=O)c2c([nH]c(C(=O)OCCOC(C)C)c2C)CC1C (stereo unspecified)	i
CC(c1ccccc1)C(CC(=O)O)C(=O)NC1CCCCC1 (stereo unspecified)	0.1
Cn1c(CSc2nc3ccccc3s2)nnc1SCC(=O)NCCN1CCOCC1	2.4
O=C1c2ccccc2-c2onc3ccc(NCc4ccco4)c1c23	0.9

17 entries from above, as a markdown table.
| mol | H5N1 antiviral |
| --- | --- |
| Cc1ccc(C)c(N(CC(=O)NC2CCCC2)C(=O)c2cc3cc4cccc(C)c4nc3s2)c1 | 2.1 |
| CCC(C)NC(=O)c1c(N)n(/N=C/c2cccs2)c2nc3ccccc3nc12 (stereo unspecified) | i |
| CC(C)(C)NC(=O)CSc1nnc(NC(=O)CCn2cnc3ccccc3c2=O)s1 | 0.3 |
| Cc1cc(C)n(-c2cc(C(C)(C)C)nc3c(-c4ccc(Cl)cc4)cnn23)n1 | i |
| Cc1ccccc1NS(=O)(=O)c1ccc(N2CCCC2=O)cc1 | i |
| c1csc(C2Nc3cccc4cccc(c34)N2)c1 | 0.0 |
| CN(Cc1nc2ccccc2n1C)S(C)(=O)=O | 0.5 |
| O=C(c1ccc(Cl)cc1)C1CCN(C(=O)NC2CCCCC2)CC1 | i |
| CC(C)(C)NC(=O)COC(=O)c1ccc(S(=O)(=O)N2CCCCCC2)cc1 | 0.5 |
| CCn1c(SCC(=O)c2cc(C)n(CC3CCCO3)c2C)nc2ccccc21 (stereo unspecified) | 3.5 |
| Cc1c(CC(C)C)nc(N)c(C#N)c1-c1ccccc1 | 0.1 |
| Cn1cnnc1SCC(=O)n1c2ccccc2c2ccccc21 | 0.2 |
| Cc1ccc(-n2[nH]c(C)c(C=Nc3ccc(C)cn3)c2=O)cc1 | i |
| O=C(CN1CCN(c2ccccc2)CC1)Nc1cccc(C(F)(F)F)c1 | 0.2 |
| CS(=O)(=O)c1ccc2nc(NC(=O)Nc3cccc(Cl)c3)sc2c1 | i |
| O=C(O)c1cccc(Nc2nc(N3CCOCC3)nc(N3CCOCC3)n2)c1 | 2.5 |
| COC(=O)C1C(=O)c2c([nH]c(C(=O)OCCOC(C)C)c2C)CC1C (stereo unspecified) | i |

Continuation.
SMILES	H5N1 antiviral
CCC(CC)C(=O)NC12CC3CC(CC(C3)C1)C2	0.1
Cc1ccc2c(c1)CC1(CN2C)C(=O)OC2(CCCCC2)OC1=O	i
O=C(O)c1ccc2c(c1)ncn2C1CCCCCC1	0.8
Cc1c(/C=C2\SC(=O)N(CC(=O)Nc3ccc4c(c3)OCO4)C2=O)c2ccccc2n1C	0.1
c1coc(-c2nnc(-c3cccs3)o2)c1	i
Cc1csc(SCc2nnc(-c3ccc(Cl)cc3)o2)n1	i
COC(=O)c1cc2sccc2n1CC(=O)N1CCCc2ccccc21	i
O=C1CNC(=O)c2c(nc3n2CCC3)N1	i
CC1=C(C)CS(=O)N(c2ccc(S(N)(=O)=O)cc2)C1 (stereo unspecified)	2.2
O=C(CSc1ccccc1)Nc1cccnc1	i
CCCCn1c(O)c(C(CC)=NCc2cc(OC)cc(OC)c2)c(=O)[nH]c1=O	4.5
COC(=O)CSc1nnc(-c2cccnc2)n1-c1cccc(OC)c1	2.5
Cc1ccc(S(=O)(=O)C(C#N)c2nc3ccccc3nc2N2CCCC2)cc1C (stereo unspecified)	0.5
Cc1c(Cl)cccc1NC(=O)CSCc1cc(=O)[nH][nH]1	i
CCn1c(COc2ccc(C)cc2)nnc1SCC(=O)C(C)(C)C	2.3
COCCSc1nc2c(c(=O)[nH]c(=O)n2C)n1CCC(C)C	3.0
CCCC1(C(=O)OC)NC(c2cccc(F)c2)C2C(=O)N(CC)C(=O)C21 (stereo unspecified)	i
COCCn1c(SCC(=O)Nc2ccc(NC(=O)c3ccco3)c(OC)c2)nc2ccccc2c1=O	i
COCCNC(=O)c1onc(CSc2ccc(Cl)cc2)c1C(=O)O	0.1
CN1c2ccccc2N(C)C1c1c(O)ccc2ccccc12	i
Cc1nc2ccc(S(=O)(=O)NC(C(=O)NCc3ccc4c(c3)OCO4)C(C)C)cc2s1 (stereo unspecified)	0.4
CCOc1cc(C)nc(NCc2ccccc2)n1	i
Clc1ccc(Nc2ccc(-n3ccnc3)nn2)cc1Cl	i
O=c1[nH]c(CN2CCCCC2)nc2c1C1(CCCCC1)Cc1ccccc1-2	i
COc1ccc(CN2CCN(C(=O)c3ccco3)CC2)cc1OCc1ccccc1	i
COc1ccc(NC(=O)CN(c2cccc(C(F)(F)F)c2)S(C)(=O)=O)cc1OC	i
O=C(CC1Nc2ccccc2NC1=O)NCCCN1CCCCCC1 (stereo unspecified)	0.3
O=C(COc1ccc(S(=O)(=O)NC2CCCCC2)cc1)NCc1cccnc1	1.5
Cc1c(C(=O)NC2CCCc3ccccc32)oc2ccc(S(=O)(=O)N3CCCC3)cc12 (stereo unspecified)	i
O=C(CSc1n[nH]c(=O)n1C1CC1)Nc1cc(Cl)ccc1Oc1ccccc1	i
O=C(CSc1nnc(CNc2ccc(F)cc2)o1)N1CCN(C(=O)c2ccco2)CC1	0.5
Cc1cccc(C(=O)NNC(=O)C2CCCO2)c1 (stereo unspecified)	i
COC(=O)c1sccc1NC(=O)c1ccc(Cl)s1	0.1
CC(Oc1ccc2c(-c3ccccc3)cc(=O)oc2c1)C(=O)O (stereo unspecified)	i
CC1=C(C(=O)Nc2ccccc2)C(c2ccco2)C(C#N)=C(SCC(=O)Nc2cccc(C)c2C)N1 (stereo unspecified)	i
Cc1ccc(-c2nn3c(C)nnc3s2)cc1NC(=O)c1cccs1	4.3
Cc1nnc(NC(=O)CCCOc2ccccc2)s1	0.3
CCN(CC)C(=O)c1ccccc1NS(=O)(=O)c1ccc(C)cc1	2.1
CC(=O)NC1=NN(c2ccccc2)C(=O)C1	i
O=C(O)/C=C\C(=O)Nc1ccc(Oc2ccccc2)cc1	i
CCc1c(C)nc2c(C#N)c[nH]n2c1=O	i
Cc1cccc2c(C(=O)O)c3c(nc12)CCCCC3	i
COc1ccc2sc3ccccc3c(=O)c2c1OC	i
Cc1cccc(C)c1OCCCCc1c(C)n[nH]c1C	i
O=C(NCc1cccs1)C(NS(=O)(=O)c1cccc2nsnc12)c1ccccc1 (stereo unspecified)	1.9
Clc1ccc2c(c1)C1OCCC1C(c1ccco1)N2 (stereo unspecified)	1.4
CN(C)S(=O)(=O)N1CCC(c2ccc(F)cc2)C(COc2ccc3c(c2)OCO3)C1 (stereo unspecified)	i
O=C(c1ccccc1F)c1cn(CC(=O)N2CCCCC2)c2ccccc12	0.1
Cc1cccc(CC2CC(=O)N(c3ccccc3)C2=O)c1 (stereo unspecified)	0.4
CCCCc1cc2c(c(NC(=O)CC)n1)c(=O)oc1ccccc12	1.0
COC(=O)C1=CN(CC2CCCO2)C=C(C(=O)OC)C1c1cc(OC)c(OC)c(OC)c1 (stereo unspecified)	0.2
CC(CN1CCOCC1)OC(=O)c1cccc(Br)c1 (stereo unspecified)	i
Cc1cc(C(=O)CSc2nc3ccccc3[nH]2)c(C)n1CC1CCCO1 (stereo unspecified)	1.2
Cc1ccc(N(C(=O)CNC(=O)c2ccco2)C(C(=O)NC2CCCC2)c2cccnc2)cc1C (stereo unspecified)	i
O=C(O)c1ccc(Oc2cccc([N+](=O)[O-])c2)cc1C(=O)O	0.2
CCC(C)n1c(=O)c(C(=O)Nc2ccccc2S(N)(=O)=O)c(O)c2ccccc21 (stereo unspecified)	0.5
Cc1ccc2[nH]c(=O)c(N3CCOCC3)c(-c3ccccc3)c2c1	5.3
O=C(C/C=N/OCc1ccc(Cl)cc1)c1cnc(-c2ccccc2)s1	0.2
CCc1cccc(NC(=O)C2CCN(S(=O)(=O)c3cccs3)CC2)c1	i
CC1CN(C(=O)c2cc3cc(Cl)cc(Cl)c3oc2=O)CC(C)O1 (stereo unspecified)	i

(listing goes on)
SMILES	H5N1 antiviral
CCN(CCCNC(=O)C1CCC(=O)N1Cc1ccccc1Cl)c1cccc(C)c1 (stereo unspecified)	i
COC(=O)c1ccc(CSc2nc3c(cnn3-c3ccc(Cl)cc3)c(=O)[nH]2)o1	1.1
COC(=O)NCC(C)OC(=O)Nc1cccc(Cl)c1 (stereo unspecified)	i
Cc1ccc(S(=O)(=O)N2CCOCC2)cc1C(=O)N1C(=O)c2cccc(N)c2C1=O	0.4
CC(C)(C)c1ccc(-c2nnc3sc(-c4ccccn4)nn23)cc1	2.8
CC(NC(=O)CCl)c1ccc(Cl)c(Cl)c1 (stereo unspecified)	i
O=C(CSc1nc2ccccc2c(=O)[nH]1)N1CCCCC1	1.4
COc1ccc(N2C(=O)CCC2=O)cc1	i
Cc1cc(C(=O)OCC(=O)N2C(C)CCCC2C)c(C)o1 (stereo unspecified)	1.2
COc1ccc(Cc2c(O)nc[nH]c2=O)cc1	i
CCCCOc1ccc(/C(O)=C2/C(=O)C(=O)N(CCCOC)C2c2ccncc2)cc1 (stereo unspecified)	0.0
